# Sfp PPTase inh: qHTS Assay for Inhibitors of Bacillus subtilis Sfp phosphopantetheinyl transferase (PPTase). 4'-phosphopantetheinyl transferase ffp (Bacillus subtilis), Q9F4F7. Biochemical Sfp PPTase activity, qHTS. Potency, µM, for the others: max response, negative = inhibition, actives largely listed as inhibitors. 310,000 compounds, 3.5% hits; active = well fitted inhibition curve with a large enough effect; inconclusive = small, poorly fitted or top-dose-only effect, or another doubt; inactive = no such curve, though single readings can be large or run the other way;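 also: the enzyme is Sfp with the accession as filed and its product quenches rhodamine fluorescence; potency is read from the fitted curve at half-maximal effect; 0% = enzyme reaction without inhibitor and -100% = no enzyme wells; top concentration of the series not given in the record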
#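 Reaction rates are the 30-min fluorescence difference (ex 525, em 598 nm) in wells containing 15 nM Sfp, 5 uM rhodamine-CoA and 12.5 uM BHQ-2-YbbR at pH 7.6 with 10 mM MgCl2.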
# TRPV1 potentiator: HTS Assay for Compounds that Act as Potentiators of the Vanilloid Receptor 1; TRPV1-expressing cells, Fluo-8 calcium influx, capsaicin EC20 potentiation; host cell line not named in the record; control for the full effect not named in the record; potentiation, % at 8.33 µM; 320,000 compounds, 0.02% hits; AID 540277, 2011; Transient receptor potential cation channel subfamily V member 1 (Homo sapiens), Q8NER1; active means potentiation above 80%; inconclusive means 30% to 80%; inactive means below 30%; also: 0% is about no effect
# Target sequence (Q8NER1 whole entry, looked up): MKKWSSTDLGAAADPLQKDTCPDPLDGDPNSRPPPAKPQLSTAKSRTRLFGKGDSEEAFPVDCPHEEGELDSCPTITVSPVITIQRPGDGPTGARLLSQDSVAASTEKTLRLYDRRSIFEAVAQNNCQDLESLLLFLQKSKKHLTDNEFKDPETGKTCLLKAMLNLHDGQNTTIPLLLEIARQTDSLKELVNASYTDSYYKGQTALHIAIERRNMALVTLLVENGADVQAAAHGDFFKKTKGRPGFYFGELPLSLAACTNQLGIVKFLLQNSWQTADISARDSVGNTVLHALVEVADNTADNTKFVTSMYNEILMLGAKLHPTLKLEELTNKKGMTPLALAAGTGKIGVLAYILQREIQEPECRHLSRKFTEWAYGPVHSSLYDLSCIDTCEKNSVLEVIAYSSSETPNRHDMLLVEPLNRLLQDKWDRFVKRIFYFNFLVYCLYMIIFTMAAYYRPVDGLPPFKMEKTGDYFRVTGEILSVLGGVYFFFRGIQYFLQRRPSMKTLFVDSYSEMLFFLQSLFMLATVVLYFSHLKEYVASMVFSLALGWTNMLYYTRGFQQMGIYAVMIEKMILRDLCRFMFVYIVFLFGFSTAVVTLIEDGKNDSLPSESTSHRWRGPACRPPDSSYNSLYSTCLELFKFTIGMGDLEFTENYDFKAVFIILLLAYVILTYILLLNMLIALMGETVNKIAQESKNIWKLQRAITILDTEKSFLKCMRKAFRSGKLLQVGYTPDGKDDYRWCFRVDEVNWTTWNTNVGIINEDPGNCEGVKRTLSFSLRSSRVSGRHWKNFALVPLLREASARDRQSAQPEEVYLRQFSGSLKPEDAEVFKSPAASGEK
#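 Fluo-8 calcium influx in TRPV1-expressing cells, kinetic read (ex 480/em 520 nm). Compound added and read 3 min for agonist activity, followed by capsaicin at EC20 final and 2 min further read for enhancement.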
# Menin-MLL FL inh: qHTS Assay for Inhibitors Targeting the Menin-MLL Interaction in MLL Related Leukemias: Competition With Fluorescein Labeled MLL-derived Peptide. FP activity change, % at 61.4 µM. AID 1766, 2009. 290,000 tested, under 10 active. Fluorescence polarization, fluorescein-MLL peptide displacement from menin; inconclusive = falling polarisation curve, or a change in total fluorescence; inactive = total fluorescence flat and polarisation flat or rising; no compound was filed as active; the % refers to the polarisation; negative = inhibition;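 also: % of control where 0% means no effect; inhibitors lower the polarisation; unlabelled MLL peptide was the positive control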
# D2 potentiator: Beta-Arrestin HTS for Positive Allosteric Modulators of the Human D2 Dopamine Receptor: Potentiators; potentiation, % (no concentration beside the values); DiscoveRx D2 beta-arrestin cells, luminescence, 90 min; 100% = 57 uM dopamine signal; D(2) dopamine receptor (Homo sapiens), P14416; 360,000 compounds, 0.23% hits; active = potentiation of 50% or more; inconclusive = 30% to 50%; inactive = 30% or less;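 also: compound concentration not given in the record; tested on top of an EC20 dose of dopamine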
#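 PathHunter beta-arrestin assay in DiscoveRx D2 cells. Compounds were added with an EC20 of dopamine (50 nM final) for 90 min at 37 deg C. Luminescence was read 1 h after detection reagent, with 57 uM dopamine as the EC100 control.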
# ClpP mod: qHTS Assay for Activators of ClpP; ATP-dependent Clp protease proteolytic subunit (Bacillus subtilis (strain 168)), P80244; purified B. subtilis ClpP, FRET peptide cleavage, 20 min; Potency, µM (highest dose often 57.5 µM), for inactives: at the highest dose activity change, negative = active; 340,000 compounds, 1.9% hits; active = well fitted falling curve with a large enough effect; inconclusive = small, poorly fitted or top-dose-only effect; inactive = no such curve, though single readings can be large or run the other way; also: potency is read from the fitted curve at half-maximal effect; the source files actives as falling curves though it sought activators and does not explain the sign; nearly all actives have a fitted effect of over 65% in size; many hits overshoot -100%
# Target sequence (P80244 whole entry, looked up): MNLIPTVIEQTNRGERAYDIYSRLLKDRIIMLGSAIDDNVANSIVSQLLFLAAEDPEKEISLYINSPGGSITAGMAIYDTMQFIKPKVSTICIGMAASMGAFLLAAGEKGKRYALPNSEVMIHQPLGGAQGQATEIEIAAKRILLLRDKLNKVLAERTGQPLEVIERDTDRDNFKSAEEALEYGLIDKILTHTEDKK
#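 ClpP 10 microg/mL final, pH 8 Tris/KCl buffer with BSA, glycerol, Tween-20; compound pinned in; FRET-FV substrate; RT 20 min; Ex320/Em430; ΔFRET vs ADEP 5.8 microM, DMSO, no enzyme.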
# gsp ag: qHTS for Agonist of gsp, the Etiologic Mutation Responsible for Fibrous Dysplasia/McCune-Albright Syndrome: qHTS. gsp mutant cells, cAMP HTRF, 30 min; control for the full effect not named in the record. Potency, µM (doses to about 76.9 µM), for inactives: at the highest dose activation (cAMP increase), usual class: activators. 340,000 compounds, 0.13% hits. AID 624287, 2012; active = well fitted activation curve with a large enough effect; inconclusive = small, poorly fitted or top-dose-only effect, or another doubt; inactive = no such curve, though single readings can be large or run the other way; cell line not stated here;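 also: phosphodiesterase inhibitor Ro 20-1724 added with compounds to block cAMP breakdown; potency is read from the fitted curve at half-maximal effect; nearly all actives have a fitted effect of over 60% in size; about a fifth of the inactives were tested at one dose only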
#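 Cells in DMEM/10% FBS with G418 were pretreated with compounds in DMSO plus […] (300 uM stock) for 30 min at 37C. cAMP was measured by HTRF (cAMP-d2 plus anti-cAMP antibody-K) after 30 min at room temperature.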
# gsp antag: qHTS for Antagonists of gsp, the Etiologic Mutation Responsible for Fibrous Dysplasia/McCune-Albright Syndrome: qHTS | gsp-mutant cells, cAMP HTRF, 30 min; control for the full effect not named in the record | Potency, µM (doses to about 76.9 µM), for the others: top-dose activity change, negative = inhibition, actives largely listed as inhibitors | 340,000 compounds, 0.4% hits | AID 624288, 2012; active = falling curve of any shape with a large fitted effect; inconclusive = falling curve, mostly with a smaller effect; inactive = flat or rising curve; cell line not stated here;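 also: intracellular cAMP measured with PDE inhibitor Ro 20-1724 present during compound exposure; potency is read from the fitted curve at half-maximal effect; % is scaled to controls: 0 for no effect and ±100 for the full control effect; nearly all actives have a fitted effect of over 65% in size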
#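 Measurement of cellular cAMP by homogeneous time-resolved fluorescence following a 30 min compound exposure at 37C. The PDE inhibitor […] was present throughout; the assay buffer was DPBS with 0.05% BSA and 0.005% Tween 20.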
# Numbers without * were called inactive; ? = inconclusive; . = no result given; & = joins results of further samples; [ ] = another dose, or the depositor's remark.
SMILES,Sfp PPTase inh,TRPV1 potentiator,Menin-MLL FL inh,D2 potentiator,ClpP mod,gsp ag,gsp antag
N/C(=N\O)c1ccc(NC(=O)c2ccc(Br)o2)cc1,20%,-15,2.7,-2,0.0%,-14%,-15%
CCn1ccnc1CN(C)C(=O)c1cc(COc2ccccc2SC)on1,-2%,9,-6.1,8,-1.5%,0%[15.4 µM],-5%
COc1ccc(C2/C=C\CN(C(=O)C3CC3)CC(=O)N2Cc2ccc(F)cc2)cc1 (stereo unspecified),18%&11%,-21,-0.4&-0.4,-4,0.0%,.,0%
CC(=O)Nc1ccc(S(=O)(=O)Oc2ccc3c(c2)C(C)=CC(C)(C)N3)cc1,-3%,4,3.1,.,.,.,.
CCC1=Nc2cc(C(=O)NCCN3CCCC3)ccc2Sc2ccc(C)cc21,-8%,6,-0.7,-15,1.4%,25%,15%
Cc1ccc(NC(=O)CN2c3cccc4cccc(c34)S2(=O)=O)cc1,.,.,.,-20,-27%,-11%,-3%
CCn1c(=O)c2c(nc3n2CC(C)CN3CCc2ccccc2)n(C)c1=O (stereo unspecified),9%,-1,-0.8,-6,-1.7%,0%,-18%
Cc1ccc(S(C)(=O)=O)cc1C(=O)Nc1cccc(S(=O)(=O)N2CCCCCC2)c1,.,12,.,-1,-1.3%,-10%,-3%
O=C(CN1CCC(C(=O)c2cccc(F)c2)CC1)NCc1cccs1,-2%,-7,0.8,-12,-2.6%,-32%[inhibitor],0%
Cc1ccc(C)c(-n2c(CNC(=O)c3ccco3)nnc2SCC(=O)N2CCc3ccccc32)c1,4%,2,4.6,-10,-0.7%,-3%[15.4 µM],-4%
O=C(/C=C/c1cccs1)c1ccc(N2CCOCC2)cc1,-4%,-16,9.5,19,-0.2%,2%,-29%
Cn1cc(CN2CCC(Oc3ccc(C(=O)N4CCCCC4)cc3)CC2)cn1,2%,2,-2.9,-3,-1.6%,6%[15.4 µM],-11%
O=C(N/N=C/c1ccc([N+](=O)[O-])o1)c1cc(-c2cccc(Br)c2)nc2ccccc12,9%,-2,1.1,-9,0.2%,-16%,3%
CCC(C)NC(=S)Nc1ccc2nc(N3CCN(CC)CC3)cc(C)c2c1 (stereo unspecified),15%,9,0.0,-19,?,-20%,-5%
COc1ccc(C(CNC(=O)C(=O)Nc2ccc3c(c2)OCO3)N2CCN(C)CC2)cc1 (stereo unspecified),.,0,.,-2,1.9%,-6%,14%
CCOC(=O)c1cc2c(=O)[nH]ccc2nc1C(F)(F)F,15%,-1,2.6,-9,.,32%[15.4 µM],8%
CCOC(=O)c1c(NC(=O)CCC(=O)O)sc2c1CC(C)(C)OC2,13%,5,-8.0,-5,.,3%[15.4 µM],-27%
COc1cccc(NC(=O)CSc2nncn2-c2ccccn2)c1,6%,6,2.9,-2,-1.8%,5%,15%
O=C(O)c1ccc2c(c1)-c1nc3ccccc3n1C2=O,?,1,3.7,-12,149%,-7%,12%
O=C(COc1ccc(S(=O)(=O)N2CCCC2)cc1)Nc1ccc2c(c1)OCCO2,13%,3,-0.1,-13,.,-4%[15.4 µM],.

# Grouped by structure: those above with an aryl methoxy group.
SMILES,Sfp PPTase inh,TRPV1 potentiator,Menin-MLL FL inh,D2 potentiator,ClpP mod,gsp ag,gsp antag
COc1ccc(C2/C=C\CN(C(=O)C3CC3)CC(=O)N2Cc2ccc(F)cc2)cc1 (stereo unspecified),18%&11%,-21,-0.4&-0.4,-4,0.0%,.,0%
COc1ccc(C(CNC(=O)C(=O)Nc2ccc3c(c2)OCO3)N2CCN(C)CC2)cc1 (stereo unspecified),.,0,.,-2,1.9%,-6%,14%
COc1cccc(NC(=O)CSc2nncn2-c2ccccn2)c1,6%,6,2.9,-2,-1.8%,5%,15%

# Going on with the list.
SMILES,Sfp PPTase inh,TRPV1 potentiator,Menin-MLL FL inh,D2 potentiator,ClpP mod,gsp ag,gsp antag
COc1ccc(S(=O)(=O)Nc2cccc(N(C)S(C)(=O)=O)c2)cc1C,5%,13,2.0,0,0.4%,9%,?
CCOc1nc(Nc2ccc(OC)c(Cl)c2)nc(N2CCN(c3ccc(OC)cc3)CC2)n1,1%,-2,-3.1,-9,-6.0%,-29%,-3%
Cc1ccc(-n2c(C3CC3c3ccc(Cl)cc3)n[nH]c2=S)cc1 (stereo unspecified),0%,0,1.0,-26,0.4%,3%,-10%
CC(C)CCNC(=O)C1CC(c2ccccc2[N+](=O)[O-])=NO1 (stereo unspecified),.,.,.,-3,-2.0%,.,6%
COc1cc(C=O)cc(Cl)c1OC(=O)N1CCOCC1,16%,-13,-21,-2,.,-8%,-4%
Nc1nnc(SCC(=O)Nc2ccc(N3CCOCC3)c(Cl)c2)s1,9%,6,2.3,-4,-2.6%,-13%[15.4 µM],-2%
Oc1ccc(NC(=S)N=Nc2c(O)[nH]c3ccc(Br)cc23)cc1,-14%,3,-1.8,-14,.,-19%,?
Cc1ccc(CCN2C(=O)CCC2(C)C(=O)NCc2cccnc2)cc1 (stereo unspecified),16%,8,1.8,-13,-2.0%,-13%,5%
COc1cccc(-n2nc(-c3ccnn3-c3ccccc3)c(=O)n(C)c2=O)c1,10%,18,4.4,0,-3.9%,-16%,-3%
CCC1(c2ccccc2)NC(=O)N(CC(=O)Nc2cc(Cl)ccc2N2CCOCC2)C1=O (stereo unspecified),.,-10,.,-7,2.0%,-7%,-14%
O=C(NC1CCCCC1)c1sc(N2CCOCC2)nc1-c1ccccc1,-8%,-15,0.7,-10,389%,29%,24%
CC(NC(=O)c1cccc(S(=O)(=O)N2CCc3ccccc3C2)c1)c1ccco1 (stereo unspecified),.,-6,.,12,-1.1%,6%,0%
COc1ccccc1NC(=O)CSc1nc2ccccc2cc1Cc1ccccc1,13%,13,0.6,-1,-2.7%,-33%[inhibitor],9%
COc1ccc(OC)c(NC(=O)COC(=O)/C=C/c2ccco2)c1,.,.,.,1,-1.3%,-1%,-6%
CCN(CC)Cc1c(C(=O)N/N=C/c2cccc(OCc3ccc(F)cc3)c2)nnn1-c1nonc1N,-3%,-18,0.4,-7,-1.3%,-33%[inhibitor],-31%
OCCN1CCN(CC(O)C(F)(F)F)CC1 (stereo unspecified),1%,-2,0.6,-8,0.3%,-4%,5%
COc1cc(CC(NC(C)=O)C(=O)NC2CCN(S(=O)(=O)c3ccc(NC(C)=O)cc3)CC2)cc(OC)c1 (stereo unspecified),19%,17,1.5,-3,.,2%[15.4 µM],5%
O=C(N/N=C/c1cccc(F)c1)NC1CCCCC1,1%,-8,-2.0,-5,-0.4%,29%,6%
O=C(COC(=O)c1ccc(Cl)c(S(=O)(=O)N2CCCCC2)c1)NCC1CCCO1 (stereo unspecified),-6%,-14,-0.6,-9,-0.2%,11%,-2%
COc1ccc(NC(=O)CN(C)C(=O)CNC(=O)c2ccc3ccccc3c2)cc1,.,-10,.,-31,-2.1%,8%,-2%
COc1ccccc1OCC(=O)NNC(=O)Nc1ccc(Cl)cc1,7%,?,-3.0,-13,.,1%[15.4 µM],3%
N=C(N)SCC1=CCS(=O)(=O)C1,9%,-8,1.5,-18,0.5%,4%,8%
Cc1ccc(NC(=O)CCNC(=O)c2ccc([N+](=O)[O-])cc2)cc1S(=O)(=O)N1CCOCC1,.,2,.,6,2.1%,-20%,?
O=C(NC(CSSCC(NC(=O)c1ccccc1)C(=O)O)C(=O)O)c1ccccc1 (stereo unspecified),-3%,8,-4.4,0,-1.4%,.,5%
O=C(Cn1cc(COc2c(F)c(F)cc(F)c2F)nn1)c1ccc(O)cc1,.,.,.,-22,-0.1%,.,6%
C/C(=N\NC(=O)c1ccc(Cn2cc([N+](=O)[O-])cn2)o1)c1cccc(NC(=O)C(C)C)c1,3%,25,1.1,-7,0.8%,-3%,-3%
CCn1cc(C(=O)N2CCOCC2)c(=O)c2cc(S(=O)(=O)N(C)C)ccc21,0%,9,-2.0,-6,-2.6%,0%,12%
COc1cccc2c1Oc1ncccc1N(C(=O)CCC(=O)NCc1ccc(F)cc1)C2,12%,6,.,-5,-1.8%,18%,-11%
Cc1c(Cc2ccccc2)c(=O)oc2cc(OCC(=O)c3ccccc3)ccc12,16%,20,1.5,-9,-1.0%,-1%[15.4 µM],20%
C/C=C/C(=O)OCC(=O)Nc1cc(OC)c([N+](=O)[O-])cc1C,20%,-1,0.6,2,66%,0%[15.4 µM],1%
COc1cc(O)c(C(CCN2CCOCC2)c2cc(OC)c(OC)c(OC)c2)c(OC)c1 (stereo unspecified),3%&5%,-12,4.8&-0.5,-17,-2.0%,.,-7%
CN(C)S(=O)(=O)c1ccc(N)c([N+](=O)[O-])c1,14%,-10,-0.8,-19,2.5%,7%,2%
O=C(CSc1nc(-c2ccco2)cc(C(F)(F)F)n1)Nc1ccc2c(c1)CCC2,0%,5,3.2,7,-6.4%,-1%,-9%

# Sorted by the number under gsp antag (largest number first): seven of the compounds above
SMILES	gsp antag
Cc1c(Cc2ccccc2)c(=O)oc2cc(OCC(=O)c3ccccc3)ccc12	20%
CCn1cc(C(=O)N2CCOCC2)c(=O)c2cc(S(=O)(=O)N(C)C)ccc21	12%
N=C(N)SCC1=CCS(=O)(=O)C1	8%
O=C(NC(CSSCC(NC(=O)c1ccccc1)C(=O)O)C(=O)O)c1ccccc1 (stereo unspecified)	5%
CN(C)S(=O)(=O)c1ccc(N)c([N+](=O)[O-])c1	2%
C/C(=N\NC(=O)c1ccc(Cn2cc([N+](=O)[O-])cn2)o1)c1cccc(NC(=O)C(C)C)c1	-3%
O=C(CSc1nc(-c2ccco2)cc(C(F)(F)F)n1)Nc1ccc2c(c1)CCC2	-9%
